High-throughput results (PubChem)
P. yoelii liver: exo-erythrocytic parasite development inhibition – imaging, Malaria Box, P. yoelii, HepG2-A16-CD81EGFP, dose response (AID 602156); P. yoelii liver stage in HepG2-A16-CD81EGFP, imaging; first-round cut-off not given here; calls after a first round at 10 µM; hits with a dose series show IC50 in µM; 5,700 compounds, 4.8% hits; in the data active = a potency from the dose series;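 note: infected cells exposed to compound for 48 hours before fixation; stained parasite area by imaging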
The depositor's hits bear a star; i = inactive.

SMILES | P. yoelii liver
CCOC(=O)C1=C(C)NC2=C(C(=O)CC(c3ccc(OC)c(OC)c3)C2)C1c1ccc([N+](=O)[O-])cc1 (stereo not drawn) | i
CC(C)(C)c1ncccc1OC(=O)C12CC3CC(CC(C3)C1)C2 | i
CCOC(=O)c1c(N)n(-c2ccc(NC(=O)c3cccc([N+](=O)[O-])c3)cc2)c2nc3ccccc3nc12 | i
Cc1ccccc1N=Nc1ccc(NC(=O)c2ccco2)c(C)c1 | 0.299µM*
Cc1cc(N2CCC(C)CC2)nc(-n2nc(C)cc2C)n1 | i
COc1cc2nc(Nc3ccc(F)cc3)nc(N)c2cc1OC | i
c1ccc2c(NCCNc3c4ccccc4nc4ccccc34)c3ccccc3nc2c1 | i
Cc1ccc(C(=O)NNc2nc(Nc3ccccc3)nc(N3CCCC3)n2)cc1 | i
CC(c1nc2ccccc2c(=O)n1C)N1CCN(C(=O)C(C)(C)C)CC1 (stereo not drawn) | 0.492µM*
CCOC(=O)C(C)Oc1cccc2c(=O)n(CC(=O)Nc3ccc(OC(F)(F)F)cc3)ccc12 (stereo not drawn) | i
Cc1ccccc1Nc1sc(C(=O)c2ccc([N+](=O)[O-])cc2)c(N)c1C(=O)Nc1ccccc1 | i
Cc1cc(/C=C2\SC(=Nc3ccccc3)N(C3CCCCC3)C2=O)c(C)n1-c1ccc(Br)cc1 | i
CC(C)(C)c1nn(-c2ccc(Cl)cc2)c2[nH]c(=O)c(CNCc3ccccc3)cc12 | i
CCCCCCN(C(=O)c1ccccc1)C(CC)c1nc2ccccc2c(=O)n1-c1ccccc1OC (stereo not drawn) | i
O=C(Nc1ccc(Cl)cc1)Nc1ccc(Br)cn1 | i
COc1ccc(C(=O)C[n+]2ccc3c(c2)nc(-c2ccc(OC)cc2OC)n3C)cc1 | i
CN1C(=O)NC(c2cccnc2)C(C(=O)c2cccs2)C1(O)C(F)(F)F (stereo not drawn) | i
Cc1ccc(C(=O)Oc2ccccc2-c2nc3ccccn3c2NC(C)(C)CC(C)(C)C)cc1[N+](=O)[O-] | i
Brc1ccc2c(c1)c1ccccc1n2CC1CO1 (stereo not drawn) | i
O=C(CSc1ccc2nnc(-c3cccs3)n2n1)Nc1ccccc1 | i
Oc1ccc(-c2cnccn2)cc1CNC1CCN(Cc2ccccc2)CC1 | i
CCC(C(=O)NCc1ccc(OC)c(OC)c1)n1nc(C)c2c(C)n(-c3ccc(C)cc3)nc2c1=O (stereo not drawn) | i
Cc1c(C(=O)Nc2ccccc2)sc2ncn(Cc3ccccc3Cl)c(=O)c12 | i
CCCOC(=O)C1=C(C)NC2=C(C(=O)CC(c3ccc(OC)c(OC)c3)C2)C1c1ccccc1Br (stereo not drawn) | i
C[n+]1c(C=Cc2ccc(F)cc2)ccc2ccccc21 | i
CCOc1ccc(-c2cc(C)[n+](CCO)c(-c3ccc(OCC)cc3)c2)cc1 | i
Cc1ccc(-c2noc(C3CCN(C(=O)Nc4ccc(C#N)cc4)CC3)n2)o1 | i
CCOC(=O)C1=C(C)N(c2ccc(N(C)C)cc2)C(C)=C(C(=O)OCC)C1c1ccc(Br)cc1 | i
CCn1c2c(c(=N)c3ccccc31)CCC2 | i
O=C(NC1CCN(CC(O)CN(Cc2ccccc2)S(=O)(=O)c2ccccc2)C1)c1ccccc1 (stereo not drawn) | i
O=C(Nc1cccc(Oc2ccccc2)c1)NC(CN1CCCC1)c1ccccc1 (stereo not drawn) | i
COc1ccc(C2CC(=O)C3=C(C2)NC(C)=C(C(=O)OC2CCCC2)C3c2ccc(F)cc2)cc1 (stereo not drawn) | i
COc1ccccc1C(=O)NNC(=O)c1ccccn1 | i
Fc1ccc(-n2cc(-c3ccccc3)[n+]3c2SCC3)cc1 | i
COc1ccc(-c2ccc(C=NNC(=O)CNC(=O)c3ccc4c(c3)OCO4)o2)cc1Cl | i
CC(C)Cc1nc(N2CCOCC2)c2nnn(Cc3ccccc3)c2n1 | i
O=C(Oc1ccccc1-c1nc2ccccn2c1NC1CCCCC1)c1ccc([N+](=O)[O-])cc1Cl | i
Cc1ccc(CNC(=O)CCCCCn2c(SCc3cccc([N+](=O)[O-])c3)nc3ccsc3c2=O)cc1 | i
NC(=O)/C(=C\c1cccc2ccccc12)NC(=O)c1ccccc1 | i
O=C(c1ccccc1)N1CCN(c2ccccc2NC(=O)C(Cl)(Cl)Cl)CC1 | i
COc1ccccc1NC(=O)C(=O)NCCc1ccc(OC)c(OC)c1 | i
CCCCOc1ccc(-c2nnc(-c3ccc(C)cc3)n2-c2ccccc2)cc1 | i
CCCCNCCN1CCN(c2ccc(OC)cc2)C[C@@H]1c1ccccc1 | i
CC(=O)Nc1ccc(C(C)=NNc2nc(Nc3cc(C)ccc3C)nc(N3CCOCC3)n2)cc1 | i
COc1cc(C(=O)ON=C(N)Cc2cccc3ccccc23)cc(OC)c1OC | i
COc1cc(NC(C)CCCN(Cc2ccc(Cl)cc2)C(=O)Nc2ccc(Cl)cc2Cl)c2ncccc2c1 (stereo not drawn) | i
O=C(c1ccc([N+](=O)[O-])cc1[N+](=O)[O-])N1CCCCC1 | i
O=C(/C=C/c1cccnc1)C12CC3CC(CC(C3)C1)C2 | i
Cc1cc(C)cc(NC(=S)NCCO)c1 | i
Cn1cc(C(c2cccs2)c2cn(C)c3ccccc23)c2ccccc21 | i
CCOC(=O)c1c(NC(=O)CCC(=O)OC)sc2c1CC(C)(C)SC2 | i
COCCN(C)C(=O)COC(c1cccs1)c1cccnc1Cl (stereo not drawn) | i
Cc1oc2c(c1C(=O)NCC1CCCO1)C(=O)c1ccccc1C2=O (stereo not drawn) | 0.189µM*
Cc1nc2ccccc2c(=O)n1NC(=O)c1cccc([N+](=O)[O-])c1 | i
COc1ccc(OCCOCCN2CCN(C)CC2)cc1 | i
CC(=O)N(C1=C(N2CCN(C)CC2)C(=O)c2ccccc2C1=O)c1cc(C)cc(C)c1 | i
COc1cccc(-c2ccc(O)c(CNCc3ccccc3OC)c2)n1 | i
Nc1nonc1-n1nnc(C(=O)NN=Cc2cc(Br)cs2)c1-c1ccccc1 | i
CN(C)CCNC(=S)Nc1cccc(C(F)(F)F)c1 | i
CCc1ccc(C=NNC(=O)COc2ccc3c(c2)OCO3)cc1 | i

At a glance, part of the list above:
SMILES | P. yoelii liver
COc1ccc(C(=O)C[n+]2ccc3c(c2)nc(-c2ccc(OC)cc2OC)n3C)cc1 | i
CN1C(=O)NC(c2cccnc2)C(C(=O)c2cccs2)C1(O)C(F)(F)F (stereo not drawn) | i

(cont.)
SMILES | P. yoelii liver
CC(C)(C)NC(=S)NN=CC=NNC(=S)NC(C)(C)C | i
COc1cc(NC(=O)C=Cc2ccccc2Cl)cc(OC)c1OC | i
COc1ccc(C(=O)C[N+]2=C(C)c3ccc(C)n3CC2)cc1 | i
Cc1ccc2c(c1)N=C(c1ccc([N+](=O)[O-])cc1)CO2 | i
CCOc1ccc2[nH]c(=O)c(CN(CCc3ccccc3)C(=O)c3cnccn3)cc2c1 | i
CCC(C)Nc1nc(NC(C)CC)nc(N2CCCCCC2)n1 (stereo not drawn) | 0.3µM*
CCCSCCCNC(=O)c1oc2c(c1C)-c1[nH]ncc1CC2 | i
CCNC(=O)[C@@H]1C[C@@H](NC2C3CC4CC(C3)CC2C4)CN1Cc1cccc(OC)c1OC (stereo partly drawn) | i
CCCCN1Cc2ccc(C(=O)NC(C)C)cc2N=C1c1ccc(F)cc1 | i
CC1CCc2c(sc(NC(=O)c3ccccc3F)c2C(=O)NCc2ccccc2)C1 (stereo not drawn) | i
C[N+](C)(C)c1nc(N2CCOCC2)nc(N(c2ccccc2)c2ccccc2)n1 | i
CN(C)c1ccc(N=C2NC(=O)/C(=C/c3ccc(Cl)cc3)S2)cc1 | i
CC[n+]1c(C=C2Sc3ccc(-c4ccccc4)cc3N2CCO)ccc2ccccc21 | i
CCOC(=O)C1=C(C)NC2=C(C(=O)CC(c3ccc(OC)cc3)C2)C1c1ccsc1 (stereo not drawn) | i
CN1CCN(c2ccc(Nc3ccnc4ccccc34)cc2)CC1 | i
CCOC(=O)C1=C(N)N(c2cccc([N+](=O)[O-])c2)C2=C(C(=O)CC(C)(C)C2)C1c1ccc(Br)cc1 (stereo not drawn) | i
CC(C)CNCc1cc(-c2ccc(F)cc2)ccc1O | i
CCCn1nc(Oc2nc(NCC)cc(OC)n2)ccc1=O | i
CCc1nc(N)nc(N)c1-c1ccccc1 | i
CC(C)(C)CC(C)(C)Nc1c(-c2ccccc2OC(=O)c2ccccc2Cl)nc2ccccn12 | i
NCCNc1cc(-c2ccccc2)nc2ccccc12 | i
O=C(CCl)Nc1ccc(S(=O)(=O)OCC(F)(F)C(F)F)cc1 | i
O=C(NC1CC1)c1ccc(N2CCC(Cc3ccccc3)CC2)c([N+](=O)[O-])c1 | i
O=C1c2ccccc2-c2nc3c(Cl)cc(C(F)(F)F)cc3nc21 | i
CCOc1cc(C2CC(=O)NC3=C2C(=O)CC(c2ccc(OC)cc2)C3)cc(Cl)c1O (stereo not drawn) | i
CCC(C)NC(=O)c1nn(-c2ccc(OC)cc2)c(=O)c2ccccc12 (stereo not drawn) | i
COc1cc(/C=C/c2[nH]c(=O)[nH]c(=O)c2[N+](=O)[O-])cc(Br)c1O | i
O=C(c1ccccc1)N1CCN(CC(O)COCc2ccccc2)CC1 (stereo not drawn) | i
Nc1ccc(C(=O)Nc2ccc(-c3nc4ccccc4o3)cc2)cc1 | i
OCc1nc2ccccc2n1CCOc1ccccc1 | i
COc1ccc(C2CC(=O)C3=C(C2)NC(C)=C(C(=O)OC2CCCC2)C3c2ccccc2Cl)cc1OC (stereo not drawn) | i
COc1cc(NC(C)CCCN(Cc2ccccc2OC)C(=O)C(C)C)c2ncccc2c1 (stereo not drawn) | i
c1ccc(CSc2nnc3c(n2)[nH]c2ccccc23)cc1 | i
CCOC(=O)c1c(C)n(-c2ccccc2)c2ccc(O)cc12 | i
CCOC(=O)c1[nH]c2ccc(OC)cc2c1N=NN(C)C | i
CCOC(=O)c1c(CSc2ccccc2)oc2cc(CN(C)C)c(O)c(Cl)c12 | 7.2µM*
COc1ccc(Nc2cc(C)nc(NCc3ccccc3)n2)cc1 | 0.636µM*
CN(CCCNc1ccnc2cc(Cl)ccc12)C(=O)COc1ccc(Cl)cc1 | i
COc1ccc(OC)c(-c2ccc(O)c(CN3CCCCCC3)c2)c1 | i
CC[n+]1c(/C=C/C=C2\N(C)c3ccccc3C2(C)C)n(-c2ccccc2)c2cc(Cl)ccc21 | 0.0136µM*
CCN1CCN(Cc2ccc(N(CC)CC)cc2)CC1 | i
COC(=O)c1sccc1S(=O)(=O)N1CCCC(c2[nH]ncc2-c2ccccc2)C1 (stereo not drawn) | i
COc1ccc(-n2nc(C(=O)NCC(=O)NCCCN3CC(C)CC(C)C3)c3ccccc3c2=O)cc1Cl (stereo not drawn) | i
Cc1ccc2c(c1)NC(c1ccc(F)cc1)C1=C(CC(c3ccccc3)CC1=O)N2 (stereo not drawn) | i
CN(Cc1ccccc1)c1nc2c(c(=O)[nH]c(=O)n2C)n1CCCSc1ncccn1 | i
C[n+]1cccc2ccc3cccnc3c21 | i
Nc1nc(Nc2cccc(Cl)c2)n[nH]1 | i
C[n+]1ccccc1/C=C/C1=C(c2ccccc2)Oc2ccccc2O1 | i
Cc1cc(C)c(CSC(=N)N)c(C)c1CSC(=N)N | i
O=C(Nn1c(SCc2cc(=O)n3ccccc3n2)nc2ccsc2c1=O)c1cccc(Br)c1 | i
Cc1ccc2nc(-c3ccccc3)cc(C(=O)Nc3ccc(Cl)cc3)c2c1 | i
CCC(C)NC(=O)c1c[nH]c2ccc(S(=O)(=O)N3CCc4ccccc43)cc2c1=O (stereo not drawn) | i
Cc1cc(Nc2ccc(Br)cc2)nc2ccccc12 | i
CC(C)N(C(=O)Cn1ccc(=N)c2ccccc21)C(C)C | i
O=C(O)CC(c1ccc2c(c1)OCO2)N1CCS(=O)(=O)CC1 (stereo not drawn) | i
CCC1(C)CC(CCNCc2ccccc2O)(c2ccccc2OC)CCO1 (stereo not drawn) | i
COc1cc(C(=O)Nc2ccc3nc4n(c(=O)c3c2)CCCCC4)cc(OC)c1OC | i
CCOC(=O)c1c(NC(=O)c2ccccc2)sc2c(O)c(CN(CC)CC)ccc12 | i
CCCCCCN(C(=O)c1ccc(Cl)cc1)C(CC)c1nc2ccccc2c(=O)n1-c1ccccc1OC (stereo not drawn) | i
Cc1ccc(-n2cc(C(=O)N(C)Cc3ccccc3)c3ccccc3c2=O)cc1C | i

Arranged by formula weight (descending): 20 of the compounds above.
SMILES | P. yoelii liver
CCCOC(=O)C1=C(C)NC2=C(C(=O)CC(c3ccc(OC)c(OC)c3)C2)C1c1ccccc1Br (stereo not drawn) | i
CCOC(=O)c1c(N)n(-c2ccc(NC(=O)c3cccc([N+](=O)[O-])c3)cc2)c2nc3ccccc3nc12 | i
CC(C)(C)CC(C)(C)Nc1c(-c2ccccc2OC(=O)c2ccccc2Cl)nc2ccccn12 | i
Cc1ccccc1Nc1sc(C(=O)c2ccc([N+](=O)[O-])cc2)c(N)c1C(=O)Nc1ccccc1 | i
CC[n+]1c(C=C2Sc3ccc(-c4ccccc4)cc3N2CCO)ccc2ccccc21 | i
CCOC(=O)c1c(CSc2ccccc2)oc2cc(CN(C)C)c(O)c(Cl)c12 | 7.2µM*
Cc1ccc(C(=O)NNc2nc(Nc3ccccc3)nc(N3CCCC3)n2)cc1 | i
Oc1ccc(-c2cnccn2)cc1CNC1CCN(Cc2ccccc2)CC1 | i
Cc1ccc2nc(-c3ccccc3)cc(C(=O)Nc3ccc(Cl)cc3)c2c1 | i
CC(c1nc2ccccc2c(=O)n1C)N1CCN(C(=O)C(C)(C)C)CC1 (stereo not drawn) | 0.492µM*
CCC(C)NC(=O)c1nn(-c2ccc(OC)cc2)c(=O)c2ccccc12 (stereo not drawn) | i
COc1ccc(OC)c(-c2ccc(O)c(CN3CCCCCC3)c2)c1 | i
CCCSCCCNC(=O)c1oc2c(c1C)-c1[nH]ncc1CC2 | i
C[n+]1ccccc1/C=C/C1=C(c2ccccc2)Oc2ccccc2O1 | i
O=C(O)CC(c1ccc2c(c1)OCO2)N1CCS(=O)(=O)CC1 (stereo not drawn) | i
COc1ccc(Nc2cc(C)nc(NCc3ccccc3)n2)cc1 | 0.636µM*
Brc1ccc2c(c1)c1ccccc1n2CC1CO1 (stereo not drawn) | i
CN(C)CCNC(=S)Nc1cccc(C(F)(F)F)c1 | i
CCN1CCN(Cc2ccc(N(CC)CC)cc2)CC1 | i
C[n+]1c(C=Cc2ccc(F)cc2)ccc2ccccc21 | i

Not all compounds are listed. The share of hits here may be higher or lower than overall.
